HSV augment: enhancers of HSV replication in host cells, fold increase, host cell viability | HSV replication augmentation in cells | maximum fold increase | actives 0.005% (n = 220,000);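 active = peak rise of 1.5-fold or more in the series; inconclusive = self-fluorescent or not available for retest; tested in PC3 cells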;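 note: first round at 10 µM; read as green reporter fluorescence; hits show the peak of a series up to 25 µM; 1 = signal of infected wells without compound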
PKD1 inh: inhibitors of human PKD1 kinase, biochemical, fluorescence polarization | PKD1 kinase fluorescence polarization assay | inhibition, %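 (about 10 µM by stock and volumes)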 | actives 0.056% (n = 200,000) | AID 797, 2007;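 active = inhibition of 50% or more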;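 note: controls were vehicle for no effect and a reference inhibitor for full effect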
RGS16-Gao: modulators of RGS16 binding to Galphao, primary screen, biochemical, human proteins, multiplexed bead flow cytometry; AID 1441, 2008; bead-based flow cytometry RGS16-Galphao binding, fluorescence; actives lie on both sides; binding response (% of control), % at 10 µM; Regulator of G-protein signaling 16 (Homo sapiens) + Guanine nucleotide-binding protein …; actives 0.38% (n = 220,000);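 active = below 25% or above 175%, edge rows of some plates excepted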;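 note: Galphao activated by GDP with aluminum fluoride before binding; 100% = wells without compound and 0% = beads without RGS; some results beyond the cut were filed as inactive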
Target sequence (O15492 whole entry, looked up): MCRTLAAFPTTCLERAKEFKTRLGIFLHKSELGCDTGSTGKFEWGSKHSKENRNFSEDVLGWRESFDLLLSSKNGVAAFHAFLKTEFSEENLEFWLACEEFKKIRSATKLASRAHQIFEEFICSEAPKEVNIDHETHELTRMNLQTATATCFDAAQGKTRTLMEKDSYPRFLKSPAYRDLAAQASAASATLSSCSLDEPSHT
Target sequence (P09471 whole entry, looked up): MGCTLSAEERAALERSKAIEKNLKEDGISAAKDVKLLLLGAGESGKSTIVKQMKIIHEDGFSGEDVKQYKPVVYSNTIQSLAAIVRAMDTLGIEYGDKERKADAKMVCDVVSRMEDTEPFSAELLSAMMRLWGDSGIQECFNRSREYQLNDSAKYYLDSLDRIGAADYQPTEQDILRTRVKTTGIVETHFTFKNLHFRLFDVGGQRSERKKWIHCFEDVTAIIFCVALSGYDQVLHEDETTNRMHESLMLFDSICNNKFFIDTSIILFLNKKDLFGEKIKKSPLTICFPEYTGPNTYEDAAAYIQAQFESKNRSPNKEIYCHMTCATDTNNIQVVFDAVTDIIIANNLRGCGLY
INS promoter inh: inhibitors of insulin promoter-driven GFP, primary screen, imaging, TRM-6 cells (human fetal islet line), eGFP reporter, cell count. AID 1273, 2008. actives 0.9% (n = 130,000). reporter expression induced with tamoxifen. inhibition, % at 2 µM;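 active = inhibition above the mean plus 3 SD, with well images judged a real hit on visual review, cut at about 60% in these data, passing the limit was not always enough; inconclusive = inhibition over the cutoff but images rejected on review; inactive = inhibition not above the cutoff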
GALR2 agonist: GALR2 receptor agonists, primary screen, cell-based. GALR2-expressing cells, agonist activation read-out. AID 803, 2007. actives 0.48% (n = 140,000). Galanin receptor type 2 (Homo sapiens), O43603. activation, %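 (tested at 5 µM)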;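 active = above mean plus 3 SD of all compounds, about 5% in these data, not always enough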;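 note: 0% = vehicle buffer wells and 100% = reference agonist at full effect; tested in CHO reporter cells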
Target sequence (O43603 whole entry, looked up): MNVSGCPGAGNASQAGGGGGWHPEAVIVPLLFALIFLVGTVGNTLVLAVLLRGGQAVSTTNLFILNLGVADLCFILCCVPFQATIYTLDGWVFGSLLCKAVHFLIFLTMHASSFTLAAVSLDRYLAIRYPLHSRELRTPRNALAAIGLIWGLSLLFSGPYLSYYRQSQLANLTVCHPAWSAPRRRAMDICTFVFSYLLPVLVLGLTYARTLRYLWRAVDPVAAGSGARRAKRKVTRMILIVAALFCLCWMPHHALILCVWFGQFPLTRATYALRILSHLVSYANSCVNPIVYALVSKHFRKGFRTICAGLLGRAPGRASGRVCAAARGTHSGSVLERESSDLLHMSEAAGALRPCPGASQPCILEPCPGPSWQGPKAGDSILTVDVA
INS promoter inh cell count: also measured in INS promoter inh; calls as there; normalized cell count, %; measured here: cell count, toxicity; reference of the scale not given here;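 cells exposed to compound for 48 h; stained nuclei by imaging scaled within each plate; lower means fewer cells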
HSV augment primary fold: recorded beside HSV augment, whose call it bears; fold increase; compound at 10 µM; measured here: primary screen fold increase 10 uM; tested in PC3 cells;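 GFP signal in the first replicate; 1 = infected wells without compound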
* = called active by the depositor.

Preview, 2 compounds:
What do the screens show for `Cc1ccc(NC(=O)CSc2nc(N)cc(=O)[nH]2)cc1S(=O)(=O)N1CCOCC1`?
HSV augment: inactive; RGS16-Gao: 90; HSV augment primary fold: 0.89

What do the screens show for `COc1ccc(-n2nc3c(N)n[nH]c3cc2=O)cc1`?
HSV augment: inactive; PKD1 inh: -3; RGS16-Gao: 97; INS promoter inh: -6; INS promoter inh cell count: 94; HSV augment primary fold: 0.99

All compounds of this part, previewed entries included:
What do the screens show for `Cc1ccc(NC(=O)CSc2nc(N)cc(=O)[nH]2)cc1S(=O)(=O)N1CCOCC1`?
HSV augment: inactive; RGS16-Gao: 90; HSV augment primary fold: 0.89

What do the screens show for `COc1ccc(-n2nc3c(N)n[nH]c3cc2=O)cc1`?
HSV augment: inactive; PKD1 inh: -3; RGS16-Gao: 97; INS promoter inh: -6; INS promoter inh cell count: 94; HSV augment primary fold: 0.99

How did COc1ccc(CC(=O)NC2CCCc3ccccc32)cc1 (stereo unspecified) do in these assays?
HSV augment: inactive; PKD1 inh: 3; RGS16-Gao: 96; HSV augment primary fold: 1

What do the screens show for `O=C(OCC(=O)N1CCN(C(=O)c2ccco2)CC1)c1cc(-c2ccco2)nc2ccccc12`?
HSV augment: inactive; PKD1 inh: 4; RGS16-Gao: 72; INS promoter inh: 31; GALR2 agonist: -2.7; INS promoter inh cell count: 152; HSV augment primary fold: 1.2

Results for COc1cc(NS(=O)(=O)c2ccc(NC(=O)CN3C(=O)c4ccccc4C3=O)cc2)nc(OC)n1 ?
HSV augment: inactive; PKD1 inh: -6; RGS16-Gao: 112; INS promoter inh: 36; INS promoter inh cell count: 124; HSV augment primary fold: 0.88

What do the screens show for `CN(Cc1cn(C)nc1-c1cccc(Cl)c1)Cc1nccn1C`?
HSV augment: inactive; RGS16-Gao: 105; HSV augment primary fold: 0.99

What do the screens show for `Cc1cccc(C2c3[nH]c4ccccc4c3CCN2C(=O)c2nn(C)c(=O)c3ccccc23)n1` (stereo unspecified)?
HSV augment: inactive; PKD1 inh: 4; RGS16-Gao: 96; HSV augment primary fold: 0.82

How did COc1ccccc1-c1noc(-c2cccs2)n1 do in these assays?
HSV augment: inactive; PKD1 inh: -6; RGS16-Gao: 102; INS promoter inh: -36; GALR2 agonist: -2.9; INS promoter inh cell count: 283; HSV augment primary fold: 0.97

What do the screens show for `NC(=S)N/N=C\c1ccc(-c2cccc(Cl)c2Cl)o1`?
HSV augment: inactive; PKD1 inh: 6; RGS16-Gao: 109; INS promoter inh: 1; GALR2 agonist: -1.8; INS promoter inh cell count: 128; HSV augment primary fold: 0.89

What do the screens show for `COc1ccc(CC(=O)OCC(=O)c2ccc(OC)cc2)cc1`?
HSV augment: inactive; PKD1 inh: -4; RGS16-Gao: 100; INS promoter inh: 29; GALR2 agonist: -0.1; INS promoter inh cell count: 135; HSV augment primary fold: 0.94

What do the screens show for `COc1ccc(/C=C(/C#N)C(=O)Nc2ccc(C)cc2C)cc1C(=O)O`?
HSV augment: inactive; PKD1 inh: -13; RGS16-Gao: 94; INS promoter inh: 15; GALR2 agonist: -4.7; INS promoter inh cell count: 114; HSV augment primary fold: 0.93

How did O=C(O)c1n[nH]c2ccccc12 do in these assays?
HSV augment: inactive; PKD1 inh: -15; RGS16-Gao: 100; GALR2 agonist: -2.3; HSV augment primary fold: 1.1

Results for Cc1ccc(Oc2cc([N+](=O)[O-])cc3c2C(=O)Nc2ccccc2O3)cc1 ?
HSV augment: inactive; PKD1 inh: -3; RGS16-Gao: 96; INS promoter inh: 33; GALR2 agonist: -1.4; INS promoter inh cell count: 90; HSV augment primary fold: 1.1

What do the screens show for `CCc1c(C)nc2cc(-c3ccc(OC)c(OC)c3)nn2c1NCC1CC1`?
PKD1 inh: -8; RGS16-Gao: 100; GALR2 agonist: -2.2

How did COC(=O)c1ccc2c(=O)n(CCCN3CCOCC3)c(=S)[nH]c2c1 do in these assays?
HSV augment: inactive; PKD1 inh: 1; RGS16-Gao: 96; INS promoter inh: -271; GALR2 agonist: -1.4; INS promoter inh cell count: 78; HSV augment primary fold: 0.96

How did O=[N+]([O-])c1ccc(N2CCOCC2)c(S(=O)(=O)N2CCOCC2)c1 do in these assays?
HSV augment: inactive; PKD1 inh: -5; RGS16-Gao: 95; INS promoter inh: 27; INS promoter inh cell count: 63; HSV augment primary fold: 0.99

Results for O=C(NCC1CCCO1)C1CCN(S(=O)(=O)c2cccc3cccnc23)CC1 (stereo unspecified) ?
HSV augment: inactive; PKD1 inh: -8; RGS16-Gao: 61; GALR2 agonist: -1.5; HSV augment primary fold: 0.94

Results for CC(=O)Nc1ccc(-c2csc(Nc3ccc(Cl)cn3)n2)cc1 ?
HSV augment: inactive; PKD1 inh: -7; RGS16-Gao: 135; INS promoter inh: 45; INS promoter inh cell count: 98; HSV augment primary fold: 0.91

Results for CCOC(=O)C(Sc1nn(C)c(=S)s1)C(C)=O (stereo unspecified) ?
HSV augment: inactive; PKD1 inh: -4; RGS16-Gao: 102; INS promoter inh: 17; GALR2 agonist: -0.5; INS promoter inh cell count: 114; HSV augment primary fold: 0.96

How did COc1cc(N/C=C(\C(C)=O)c2ccccc2)cc(OC)c1 do in these assays?
HSV augment: inactive; PKD1 inh: -15; RGS16-Gao: 96; INS promoter inh: 47; GALR2 agonist: -2.6; INS promoter inh cell count: 87; HSV augment primary fold: 1

Results for CCCn1nnc(NC(=O)c2cccc(OCC)c2)n1 ?
HSV augment: inactive; PKD1 inh: -3; RGS16-Gao: 101; INS promoter inh: -237; GALR2 agonist: -2.2; INS promoter inh cell count: 134; HSV augment primary fold: 1

Results for CCOC(=O)Cc1c(C)nc2cc(-c3ccc(C)cc3)[nH]n2c1=O ?
HSV augment: inactive; PKD1 inh: -6; RGS16-Gao: 100; INS promoter inh: 62; GALR2 agonist: -2.7; INS promoter inh cell count: 72; HSV augment primary fold: 1

What do the screens show for `Cc1ccc(S(=O)(=O)N2CCN(C(=O)/C=C/c3ccco3)CC2)cc1`?
HSV augment: inactive; PKD1 inh: 18; RGS16-Gao: 100; GALR2 agonist: 0.9; HSV augment primary fold: 1.1

What do the screens show for `COc1cccc(C2C=C(c3ccc(Br)s3)Nc3ncnn32)c1OC` (stereo unspecified)?
HSV augment: inconclusive; PKD1 inh: 13; RGS16-Gao: 103; GALR2 agonist: -1.6

How did O=C1CC(N2CCC(c3nc4ccccc4s3)CC2)C(=O)N1 (stereo unspecified) do in these assays?
HSV augment: inactive; PKD1 inh: -8; RGS16-Gao: 101; INS promoter inh: -20; GALR2 agonist: -3.3; INS promoter inh cell count: 80; HSV augment primary fold: 1.1

How did COc1ccc(/C=N/n2c(-c3cc(C)[nH]n3)n[nH]c2=S)cc1 do in these assays?
HSV augment: inactive; RGS16-Gao: 99; HSV augment primary fold: 1

What do the screens show for `Cc1ccc(C(=O)NC(=S)NCC2CCCO2)cc1` (stereo unspecified)?
HSV augment: inactive; PKD1 inh: -10; RGS16-Gao: 106; INS promoter inh: 42; GALR2 agonist: -1.8; INS promoter inh cell count: 105; HSV augment primary fold: 0.9

Results for O=c1oc2c3c4c(cc2s1)CCCN4CCC3 ?
HSV augment: inactive; PKD1 inh: 7; RGS16-Gao: 74; INS promoter inh: 14; GALR2 agonist: -0.8; INS promoter inh cell count: 130; HSV augment primary fold: 0.96

What do the screens show for `O=C(NC1CCCC1)c1cc(Cl)ccc1[N+](=O)[O-]`?
HSV augment: inactive; PKD1 inh: 8; RGS16-Gao: 121; INS promoter inh: 38; GALR2 agonist: -0.5; INS promoter inh cell count: 138; HSV augment primary fold: 1

Results for COc1ccc(Br)cc1CNc1ccc(O)cc1 ?
HSV augment: inactive; PKD1 inh: 3; RGS16-Gao: 29; INS promoter inh: -77; GALR2 agonist: -0.3; INS promoter inh cell count: 62; HSV augment primary fold: 1.1

How did CCCCNC(=O)C1CCN(S(=O)(=O)c2c(C)noc2/C=C\c2ccc(OC)cc2)CC1 do in these assays?
HSV augment: inactive; PKD1 inh: 16; RGS16-Gao: 100; GALR2 agonist: -2.1; HSV augment primary fold: 0.72

How did O=C(O)c1nc(N2CCCC2)ncc1Cl do in these assays?
HSV augment: inactive; PKD1 inh: 3; RGS16-Gao: 92; INS promoter inh: 41; GALR2 agonist: -1.8; INS promoter inh cell count: 107; HSV augment primary fold: 1

Results for CSc1cccc(NC(=O)C2CCN(S(=O)(=O)c3ccc(F)cc3)CC2)c1 ?
HSV augment: inactive; PKD1 inh: -3; RGS16-Gao: 95; INS promoter inh: 5; GALR2 agonist: 0.4; INS promoter inh cell count: 65; HSV augment primary fold: 0.87

How did CCOC(=O)N1CCN(C(=O)Cn2ccc3ccccc3c2=O)CC1 do in these assays?
HSV augment: inactive; PKD1 inh: 0; RGS16-Gao: 101; GALR2 agonist: -2.2; HSV augment primary fold: 1

Results for CC1=NN(C(=O)CSCc2ccccc2)C(O)(c2ccc(Cl)cc2)C1 (stereo unspecified) ?
HSV augment: inactive; PKD1 inh: 2; RGS16-Gao: 52; HSV augment primary fold: 0.95

How did Cn1c(=O)[nH]c(=O)c2c1nc(CN1CCN(c3cccc(Cl)c3)CC1)n2CCc1ccccc1 do in these assays?
HSV augment: inactive; PKD1 inh: 1; RGS16-Gao: 100; INS promoter inh: -138; GALR2 agonist: 0.0; INS promoter inh cell count: 85; HSV augment primary fold: 1.1

Results for Cn1c(NC(=O)c2cc(Br)ccc2Cl)cc(=O)n(C)c1=O ?
HSV augment: inactive; PKD1 inh: -3; RGS16-Gao: 100; GALR2 agonist: -1.2; HSV augment primary fold: 0.96

Results for O=C(CCCn1c(=O)c2ccccc2n(Cc2ccccc2)c1=O)NCc1ccco1 ?
HSV augment: inactive; PKD1 inh: 1; RGS16-Gao: 136; INS promoter inh: -7; GALR2 agonist: 0.2; INS promoter inh cell count: 74; HSV augment primary fold: 0.93

Results for Cc1cc(C)n2nc(C(=O)Nc3nnc(C4CC4)s3)nc2n1 ?
HSV augment: inactive; PKD1 inh: -1; RGS16-Gao: 101; INS promoter inh: 26; GALR2 agonist: -0.4; INS promoter inh cell count: 49; HSV augment primary fold: 0.94

Results for COc1ccc(NC(=O)c2ccc(-n3c(C)ccc3C)cc2)c(OC)c1 ?
HSV augment: inactive; PKD1 inh: 4; RGS16-Gao: 104; INS promoter inh: -79; INS promoter inh cell count: 14; HSV augment primary fold: 0.83

How did Cc1nc(N2CCC(C(N)=O)CC2)c2c(-c3cccs3)csc2n1 do in these assays?
HSV augment: inactive; PKD1 inh: -2; RGS16-Gao: 109; INS promoter inh: -50; INS promoter inh cell count: 98; HSV augment primary fold: 0.97

Results for Cc1cc(C)nc(SCC(=O)NN)n1 ?
HSV augment: inactive; PKD1 inh: 4; RGS16-Gao: 103; INS promoter inh: 47; INS promoter inh cell count: 112; HSV augment primary fold: 0.92

How did COc1ccc(CN2CCC(=O)NC2=O)cc1 do in these assays?
HSV augment: inactive; PKD1 inh: 10; RGS16-Gao: 106; INS promoter inh: -18; GALR2 agonist: -0.1; INS promoter inh cell count: 127; HSV augment primary fold: 1.1

How did O=C(O)CCc1nn2c3ccccc3nc2n(CCN2CCCCC2)c1=O do in these assays?
HSV augment: inactive; PKD1 inh: -7; RGS16-Gao: 101; INS promoter inh: 18; GALR2 agonist: -0.3; INS promoter inh cell count: 140; HSV augment primary fold: 1.1

How did CCO[C@H]1OC(C(=O)NCc2ccccc2)=C[C@@H](C2CCCCC2)[C@@H]1CCCO do in these assays?
HSV augment: inactive; PKD1 inh: 19; RGS16-Gao: 101; HSV augment primary fold: 0.8

What do the screens show for `S=c1[nH]nc(CCc2ccccc2)n1Cc1ccccc1`?
HSV augment: inactive; PKD1 inh: 5; RGS16-Gao: 126; GALR2 agonist: -2.2; HSV augment primary fold: 1.1

A run of entries of the results above, as a working copy:
Results for Cn1c(NC(=O)c2cc(Br)ccc2Cl)cc(=O)n(C)c1=O ?
HSV augment: inactive; PKD1 inh: -3; RGS16-Gao: 100; GALR2 agonist: -1.2; HSV augment primary fold: 0.96

Results for O=C(CCCn1c(=O)c2ccccc2n(Cc2ccccc2)c1=O)NCc1ccco1 ?
HSV augment: inactive; PKD1 inh: 1; RGS16-Gao: 136; INS promoter inh: -7; GALR2 agonist: 0.2; INS promoter inh cell count: 74; HSV augment primary fold: 0.93
